High-throughput results as filed in PubChem BioAssay.
D2 agonist = human D2 receptor agonism in beta-arrestin assay | P14416 | DiscoveRx PathHunter D2 beta-arrestin, luminescence, 90 min; 100% = 57 uM dopamine signal | activation, % (concentration not given with the values) | actives 0.084% (n = 360,000) | AID 624465; in the data active = activation above about 40%; inconclusive = about 15% to 40%; inactive = below about 15%; also: compound concentration not given in the record; the text of the record calls up to 30% inactive
Target sequence (P14416 whole entry, looked up): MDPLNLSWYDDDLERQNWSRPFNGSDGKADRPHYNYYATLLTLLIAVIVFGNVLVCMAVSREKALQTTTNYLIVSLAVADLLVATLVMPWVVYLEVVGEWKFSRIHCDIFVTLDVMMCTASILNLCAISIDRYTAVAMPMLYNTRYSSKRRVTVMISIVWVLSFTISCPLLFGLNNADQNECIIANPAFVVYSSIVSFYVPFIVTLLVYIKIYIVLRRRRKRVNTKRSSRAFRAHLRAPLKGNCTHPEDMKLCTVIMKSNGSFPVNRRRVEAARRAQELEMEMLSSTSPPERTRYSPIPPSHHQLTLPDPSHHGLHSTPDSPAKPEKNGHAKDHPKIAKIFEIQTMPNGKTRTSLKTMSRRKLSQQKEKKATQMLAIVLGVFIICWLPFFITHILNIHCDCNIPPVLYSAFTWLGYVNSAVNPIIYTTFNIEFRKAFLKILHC
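DiscoveRx PathHunter D2 beta-arrestin cells (2,100/well) attached overnight, then compound-stimulated 90 min at 37 C in HBSS/10 mM HEPES/0.1% Tween-20 buffer; beta-galactosidase complementation read by luminescence after 1 h at ambient temperature. Dopamine 57 uM final (EC100) as control.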
TRPML1 blocker = human mucolipin-1 channel inhibition | AID 624415 | actives 0.02% (n = 390,000) | activity change, negative = inhibition, % (concentration not given with the values) | TRPML1-inducible cells, Ca2+ dye fluorescence, FDSS; active compounds read low; inhibition of EC80 agonist-evoked calcium signal | Q9GZU1; in the data active means activity change below about -50%; inconclusive means about -30% to -50%; inactive means above about -30%;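 also: stimulus is agonist 54-4 at its EC80 concentration; % is scaled to controls: 0 for no effect and ±100 for the full control effect; the text of the record puts the active cut at -80%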
Target sequence (Q9GZU1 whole entry, looked up): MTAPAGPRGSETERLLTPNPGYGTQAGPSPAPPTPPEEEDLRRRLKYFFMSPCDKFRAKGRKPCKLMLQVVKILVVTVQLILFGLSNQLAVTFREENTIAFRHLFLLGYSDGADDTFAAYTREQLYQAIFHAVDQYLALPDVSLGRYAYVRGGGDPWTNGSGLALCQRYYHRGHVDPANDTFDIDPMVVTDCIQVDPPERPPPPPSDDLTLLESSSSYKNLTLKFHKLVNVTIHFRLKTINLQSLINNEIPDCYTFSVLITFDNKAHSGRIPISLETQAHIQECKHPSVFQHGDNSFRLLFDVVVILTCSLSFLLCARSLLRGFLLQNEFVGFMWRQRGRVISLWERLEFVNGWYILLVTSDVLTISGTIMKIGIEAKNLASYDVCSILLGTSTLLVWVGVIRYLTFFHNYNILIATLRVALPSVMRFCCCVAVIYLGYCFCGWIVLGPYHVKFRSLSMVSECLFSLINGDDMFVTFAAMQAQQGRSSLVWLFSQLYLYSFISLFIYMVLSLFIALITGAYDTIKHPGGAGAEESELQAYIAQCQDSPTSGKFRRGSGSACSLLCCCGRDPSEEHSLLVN
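Calcium fluorescence in TRPML1-DL cells induced overnight with Tet: a 110 s read after compound pin addition, then a 110 s antagonist read after challenge with 54-4 at 4 uM final (EC80).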
TRPML1 agonist = agonists of human TRPML1 channel. Q9GZU1. activation, % (test concentration not listed). actives 0.12% (n = 410,000). TRPML1-expressing cells, Ca2+ dye fluorescence, FDSS; host cell line not named in the record; reference of the full effect not given here; in the data active = activation above about 50%; inconclusive = about 30% to 50%; inactive = below about 30%; also: 0% is about no effect; the text of the record puts the active cut at 80%
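Cells: TRPML1-DL, 1X Tet inducer, ~16 h at 37 degrees C/5% CO2. Dye: ABD Ca8 no-wash + quencher, 45-90 min RT. Read: 10 s baseline, compound add, 110 s agonist phase; 54-4 EC80 (4uM final), 110 s antagonist phase.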
PINK1 expr mod = PINK1 expression modulation | PINK1 immunofluorescence, high-content cytometry, 24 h | Potency, µM (doses to about 76.6 µM), without a hit: at the highest dose activation (PINK1 increase), actives largely listed as activators | actives 0.2% (n = 410,000) | AID 624263; active = well fitted activation curve with a large enough effect; inconclusive = small, poorly fitted or top-dose-only effect; inactive = flat fitted curve, though single readings scatter; cell line not stated here;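 also: potency is read from the fitted curve at half-maximal effect; % of control where 0% means no effect; nearly all actives have a fitted effect of over 65% in size; a mitochondrial uncoupler was the plate control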
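Stable cell line treated 24 h with compounds at 5 concentrations (CCCP controls), then fixed and immunostained for PINK1 plus nuclear and cell stains; PINK1 immunofluorescence quantified by laser-scanning microplate cytometry.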
D2 PAM = human D2 receptor positive allosteric modulation; actives 0.23% (n = 360,000); potentiation, % (test concentration not listed); P14416; DiscoveRx D2 beta-arrestin cells, luminescence, 90 min; 100% = 57 uM dopamine signal; active = potentiation of 50% or more; inconclusive = 30% to 50%; inactive = 30% or less;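 also: compound concentration not given in the record; tested on top of an EC20 dose of dopamine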
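D2 cells co-treated with compound plus 50 nM dopamine (EC20) for 90 min at 37 deg C to detect potentiation. Beta-arrestin recruitment was read as enzyme-fragment luminescence after 1 h at ambient temperature. Full response was set by 57 uM dopamine.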
Six1-Eya2 inh = inhibitors of human Six1/Eya2 interaction. Q15475+O00167. AlphaScreen GST-Six1/His-Eya2 binding, biochemical; active compounds read low; control for the full effect not named in the record. AID 651725. activity change, % (concentration not given with the values). actives 0.56% (n = 360,000); in the data active = activity change below about -65%; inconclusive = about -30% to -65%; inactive = above about -30%; also: % is scaled to controls: 0 for no effect and ±100 for the full control effect
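GST-Six1 + His-Eya2 (5X stock: 250/500 nM); Tris pH 8.0, 300 mM NaCl, 0.05% BSA, 0.02% Tween 20; GSH donor/Ni acceptor beads; 1 h 37 °C dark; AlphaScreen readout.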
Active calls of the source: *; ? = inconclusive; · = not tested or not shown; & = joins results of further samples; [ ] = remark or other dose.

Results follow in this order: D2 agonist	TRPML1 blocker	TRPML1 agonist	PINK1 expr mod	D2 PAM	Six1-Eya2 inh
Cc1cc(C)cc(NC(=O)CSc2nc3c(oc4ccccc43)c(=O)n2-c2ccccc2F)c1
 : ·	13	1.3	-0.4%	·	·
Cc1ccc(C(=O)OCC(=O)NC2CCCC(C)C2C)s1 (stereo not given)
 : -4.0	-1	-0.2	0.0%	-7	5
Cc1ccc(N(CC(=O)Nc2ccc(C)c(Cl)c2)S(=O)(=O)c2cccs2)cc1
 : ·	-10	-0.9	4.2%	·	·
CN(C(=O)c1ccc(S(=O)(=O)N2CCCC2)cc1)C1CCCCC1
 : -6.5	-1	0.5	-0.9%	-34	2
COc1ccccc1NC(=O)CNC(=O)c1ccc([N+](=O)[O-])cc1
 : 1.8	-15	-0.3	0.1%	-7	1
CS(=O)(=O)c1cnc2c(S(=O)(=O)c3ccccc3)cnn2c1N
 : -1.8	-6	-0.4	1.4%	-3	-10
CCc1nc2ccc(C(=O)N3CCN(S(=O)(=O)CC)CC3)cn2c1N(CC)Cc1cccc(Br)c1
 : -5.8	·	-0.9	0.1%	-4	-2
COc1ccc(C(=O)NCC2CCCO2)cc1S(=O)(=O)N1CCCc2ccccc21 (stereo not given)
 : -4.2	-4	-1.0	0.1%	-14	-4
CC(=O)NC(CC(=O)OCC(=O)N1CCc2ccccc21)c1ccccc1 (stereo not given)
 : 0.2	2	-0.6	-0.7%	-3	1
Cc1occc1C(=O)NNC(=O)c1cccc(F)c1
 : 2.0	-3	-0.4	0.3%	-3	5
COc1ccccc1N1CCN(C(CNC(=O)C(=O)NCc2ccc(C)cc2)c2cccnc2)CC1 (stereo not given)
 : ·	-16	1.4	0.1%	·	·
CC(=O)c1ccc(S(=O)(=O)Nc2ccc(C(=O)N3CCC3)cc2)cc1
 : 0.5	0	0.5	0.4%	-1	6
O=C(CSC1=Nc2ccccc2C2=NC(c3ccccc3)C(=O)N12)NCC1CCCO1 (stereo not given)
 : -5.2	6	0.1	0.4%	-17	7
COc1ccccc1N1CCN(c2c3c(nc4nncn24)CCC3)CC1
 : ·	36	0.5	0.6%	·	·
C[C@@H]1CN([C@H](C)CO)C(=O)c2cc(Br)cnc2O[C@H]1CN(C)C
 : -1.0	-9	-0.6	0.9%	2	5
Cc1ccnc(NC(=S)NC(=O)c2cncc(Br)c2)c1
 : 0.4	-14	0.4	1.2%	-1	-4
NC(N)=NN=C1CCCCCCCCCCC1
 : -0.3	11	-0.3	5.9%	-4	4
O=C(NC(=S)NCCc1ccccc1)c1ccco1
 : -6.3	-3	0.0	0.5%	0	0
CCOCCCNS(=O)(=O)c1ccc(NC(=O)c2ccccc2)cc1
 : -1.5	2	0.7	·	5	-6
O=C(O)C1(c2ccccc2)CCN(S(=O)(=O)c2cccc(Cl)c2)CC1
 : 5.6	-12	0.0	1.6%	4	-10
Cc1ccc2c(COC(=O)c3c(C)noc3C)cc(=O)oc2c1
 : 0.6	-2	1.0	0.4%	-3	-6
Cc1c(Cl)cccc1NC(=O)CCn1cnnn1
 : ·	11	0.9	4.0%	·	·
COc1cc(C(=O)Nc2ccc(S(=O)(=O)Nc3cc(C)nc(C)n3)cc2)cc(OC)c1OC
 : -19	25	-1.0	0.4%	-2	-5
Cc1cccc(NC(=O)CCN2CC(C)OC(C)C2)c1 (stereo not given)
 : -0.7	5	-0.1	·	-34	1
COc1ccc(/C=N/N=C2/NC(=O)C(CC(=O)O)S2)cc1OCc1ccc(Cl)cc1 (stereo not given)
 : -0.1	-2	0.2	-1.1%	-10	-17
COc1ccc(C)cc1NC(=O)CC(NC(C)=O)c1ccccc1 (stereo not given)
 : 0.5	18	2.5	-0.9%	-5	0
CSc1nc(S(=O)(=O)c2ccccc2)c(Cl)s1
 : 1.7	16	4.5	-1.3%	-6	-2
Cc1cccc(C(C)C)c1NC(=O)c1c(-c2ccccc2)noc1C
 : -0.5	19	1.4	3.2%	-11	7
COc1ccc(NC(=O)C2CCCN2S(=O)(=O)c2ccc3c(c2)CCC(=O)N3)c(OC)c1 (stereo not given)
 : 5.0	-18	0.8	-0.3%	1	-6
O=C(COCc1cc(-c2cccs2)on1)Nc1cccc(O)c1
 : ·	7	2.5	0.2%	·	·

Four entries from above in another layout.
Compound	D2 agonist	TRPML1 blocker	TRPML1 agonist	PINK1 expr mod	D2 PAM	Six1-Eya2 inh
CSc1nc(S(=O)(=O)c2ccccc2)c(Cl)s1	1.7	16	4.5	-1.3%	-6	-2
Cc1cccc(C(C)C)c1NC(=O)c1c(-c2ccccc2)noc1C	-0.5	19	1.4	3.2%	-11	7
COc1ccc(NC(=O)C2CCCN2S(=O)(=O)c2ccc3c(c2)CCC(=O)N3)c(OC)c1 (stereo not given)	5.0	-18	0.8	-0.3%	1	-6
O=C(COCc1cc(-c2cccs2)on1)Nc1cccc(O)c1	·	7	2.5	0.2%	·	·

Some of these compounds in order of the TRPML1 blocker value, descending.
compound	TRPML1 blocker
COc1ccc(C)cc1NC(=O)CC(NC(C)=O)c1ccccc1 (stereo not given)	18
O=C(COCc1cc(-c2cccs2)on1)Nc1cccc(O)c1	7
COc1ccc(NC(=O)C2CCCN2S(=O)(=O)c2ccc3c(c2)CCC(=O)N3)c(OC)c1 (stereo not given)	-18

(list continues)
Results follow in this order: D2 agonist	TRPML1 blocker	TRPML1 agonist	PINK1 expr mod	D2 PAM	Six1-Eya2 inh
CCOc1cc(C(=O)Nc2ncccn2)cc(OCC)c1OCC
 : -1.8	-4	-0.8	-0.7%	-6	-2
CN(C)CCC(Oc1ccccc1OCc1ccccc1)c1ccccc1 (stereo not given)
 : -2.1	13	1.3	3.2%	-7	-17
Cc1nnc(Sc2nc3c(c(=O)[nH]c(=O)n3C)n2Cc2ccccc2)s1
 : -7.1	-2	-0.2	0.5%	-6	0
O=C(CSc1ncc(S(=O)(=O)c2ccc(Br)cc2)c(=O)[nH]1)Nc1ccc2c(c1)OCCO2
 : ·	4	0.6	-0.9%	·	·
Cc1ccc(CN2CCN(/N=C/c3cccn3C)CC2)c(C)c1
 : -1.7	5	1.0	9.2%	-20	?
COc1cc(CO)cc(Br)c1OCC(=O)O
 : -0.5	-2	0.9	0.3%	0	27
CC(=O)c1c(C)[nH]c(C(=O)COC(=O)c2cccnc2Cl)c1C
 : 3.6	40	0.4	-0.5%	-7	2
COC(=O)C1C(=O)NC(SC)=C(C#N)C1c1ccccc1F (stereo not given)
 : -3.0	23	0.1	0.7%[38.3 µM]	-19	4
COc1ccc(NC(=O)C2C3C=CC4(O3)C2C(=O)N(CCCN2CCCC(C)C2)C4C(=O)NC2CCCCC2)cc1 (stereo not given)
 : -1.8	3	0.6	-0.8%	-16	35
COc1ccc(C2/C(=C(\O)c3ccc4c(c3)OCCO4)C(=O)C(=O)N2Cc2cccnc2)cc1 (stereo not given)
 : -2.7	23	-0.3	-0.5%	-9	1
CS(=O)(=O)Nc1ccc(OCc2ccccc2)cc1
 : -1.8	35	1.9	3.7%[38.3 µM]	-10	1
CCc1cc(Cn2nc(-c3ccccc3)cc2C(=O)NCCOC)on1
 : -3.8	12	-0.8	-0.8%	-10	2
Cc1ccc(C)n1NC(=O)c1ccc(Cl)cc1
 : 0.2	-5	1.9	-2.0%	1	-3
CCc1cc2c(N[C@@H](Cc3ccccc3)C(=O)O)ncnc2s1
 : -3.9	6	-1.3	1.5%	-4	0
COCCNC(=O)CN1C(=O)CSc2ccc(S(=O)(=O)N3CCOCC3)cc21
 : -1.3	-4	0.7	0.7%	0	0
COC(=O)C[C@H]1c2cc(F)ccc2S(=O)(=O)N1Cc1ccccc1OC
 : -5.8	-3	0.4&-1.1	0.1%	-6	1
Cc1ccc(-c2cc(C(F)F)n3ncc(C(=O)NN4CCCCC4)c3n2)cc1
 : -0.4	-14	-0.2	4.8%	-1	-8
COc1ccc(C(=O)CC(=O)c2ccccc2O)cc1OC
 : 6.8	15	1.3	2.2%	5	-5
COc1cc(/C=N/NC(=O)c2ccccc2O)ccc1OCC(=O)Nc1ccccc1
 : 5.2	3	2.9	-3.4%	5	-20
COc1ccc(C)cc1NC(=O)CCC(=O)Nc1nnc(C(F)(F)F)s1
 : -0.5	-14	-0.3	7.2%[38.3 µM]	-2	2
Cc1cccc(C)c1NC(=O)Cn1c(=O)n(CCC(=O)NCc2ccco2)c(=O)c2sccc21
 : -3.2	17	-0.3	-0.5%[38.3 µM]	-1	-2
Cc1ccc2ncc(C(=O)Nc3ccc(OC(F)(F)F)cc3)c(=O)n2c1
 : ·	4	0.8	-0.3%	·	·
CCC/C(O)=C1\C(=O)CC(c2ccccc2)CC1=NCCc1c(C)[nH]c2ccc(C)cc12 (stereo not given)
 : -6.6	13	1.2	12%	-7	-1
CC1CC(C)(C)CC2(C1)NC(=O)N(CC(=O)Nc1ccc3[nH]c(=O)[nH]c3c1)C2=O (stereo not given)
 : -1.5	-8	-0.9	0.4%	9	-6
CCCC(c1nnnn1Cc1cccs1)N1CCN(C)CC1 (stereo not given)
 : 0.6	-5	0.2	-1.0%	-9	6
CCc1noc(C)c1C(=O)Nc1nc2ccc(F)cc2s1
 : 1.6	1	-0.3	3.2%	-4	7
CCCCn1c(N)c(N(CCOC)C(=O)COC(=O)c2ccccc2OCC)c(=O)[nH]c1=O
 : -2.4	-2	0.0	1.4%	7	6
CN(c1ccc(C(=O)Nc2cccnc2)cc1)S(=O)(=O)c1ccc(Cl)cc1
 : 0.8	3	-0.4	-1.1%	-19	-1
C=CCNC(=S)NNc1nc(Nc2ccccc2)nc(N2CCCCC2)n1
 : 5.8	6	0.3	3.1%	-9	-3
CCCn1c(Sc2nc3c(c(=O)[nH]c(=O)n3C)n2CCC)nc2c1c(=O)[nH]c(=O)n2C
 : -4.6	15	-0.1	-2.0%	0	-1
O=C(Nc1ccccc1)OCCOc1ccc(Cl)cc1Cl
 : -0.9	-15	2.2	8.1%	3	36
Cc1ccc(S(=O)(=O)N2CCCCC2)cc1NC(=O)COC(=O)c1ccccc1F
 : 1.4	7	0.4	3.6%	-5	3
Cc1noc(C)c1COC(=O)CNC(=O)c1cccc(F)c1
 : 0.1	-11	0.6	-0.5%	-1	-2
O=c1ccc2c([nH]1)CCCCCCCCCC2
 : 7.9	-2	1.7	-1.2%	7	4
O=C(O)[C@@H]1CCCN1C(=O)c1ccccc1N1C(=O)[C@@H]2Cc3c([nH]c4ccccc34)C(c3cccc(Cl)c3)N2C1=O (stereo not given in full)
 : -1.1	·	·	0.0%	-3	0
COc1ccccc1N1CCN(c2ncnc3c2oc2ccccc23)CC1
 : 2.3	39	1.9	7.0%	11	2
CC(=O)N1CCC(N(C(=O)Nc2ccc(F)cc2)C2CCCC2)CC1
 : -8.5	-8	0.5	-0.4%	1	-1
